Screens: PubChem BioAssay, several laboratories
eIF4H inh – human eIF4H binding inhibitors, primary screen, translation initiation inhibitor project, biochemical, uHTS, fluorescence polarization. actives 0.94% (n = 290,000). AID 2012, 2009. inhibition, % at 35 µM. eIF4H fluorescence polarization binding assay;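 active means 50% or more with normal probe brightness, or confirmed in later tests; inconclusive means above 50% with abnormal brightness, or retests that disagree; inactive means below 50% or failed in later tests; about a fifth of its hits are not listed in these tables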;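 further: calls also rest on retests at 20 µM and on dose response follow-up; 0% = protein and probe with vehicle and 100% = probe without protein; strong numbers were not always called active; many hits fall short of the cut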
MT1-MMP act inh – blockers of MT1-MMP proenzyme processing, primary screen, HT1080 RFP-PRO-GFP cells, GFP/RFP fluorescence; GFP/RFP ratio fluorescence, overnight; percent of plate control window, DMSO zero; GFP/RFP ratio change, % at 20 µM; actives 0.061% (n = 360,000);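 active means GFP/RFP ratio change of at least 30% with cell ATP level not reduced by more than half and red fluorescence within 50% of control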; further: strong numbers were not always called active
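Read-out: GFP/RFP fluorescence ratio; Test system: RFP-PRO-GFP reporter HT1080 cells; Compound dosing: single-point 20 µM compound, 1% DMSO; Times: overnight compound exposure at 37 °C.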
HIV Env fusion – inhibitors of HIV-1 Env-driven cell-cell fusion, primary screen, HeLa-JRFL effector, CEM21 target cells, luciferase; inhibition, % at 12.3 µM; actives 1.1% (n = 360,000);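 active means mean replicate inhibition score of at least 50 and every replicate individually at or above 50; inconclusive means only one of the two criteria met; inactive means mean below 50 and not all replicates reaching 50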;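 further: 0% = plate neutral controls and 100% = maraviroc near 300 nM; one replicate is shown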
UUG fidelity – modulators of yeast start codon fidelity, primary screen, whole organism, S. cerevisiae, single point, plate reader; actives 0.13% (n = 350,000); S. cerevisiae UUG-firefly luciferase reporter, luminescence/redox ratio; activity score, % at 18.7 µM;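 active means replicate mean at a twofold rise or more, about +100% in these data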;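 further: firefly luciferase made from a UUG start codon reports start codon fidelity; reporter light over untreated wells divided by growth signal over untreated wells; some hits fall short of that in this replicate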
CSC inhib – cancer stem cell viability inhibitors, primary screen, luminescence | cancer stem cell-like cells viability | inhibition, % at 7.5 µM | actives 1.1% (n = 300,000);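 active means mean at 75% or more and at least half the replicates too; inconclusive means mean and replicates disagree; tested in HMLE shEcad cells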;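 further: 0% = median of negative and 100% = median of positive control wells; the first replicate is given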
Rce1 inh – yeast Rce1p protease inhibitors, primary screen, biochemical, fluorescence, cell-free homogeneous | yeast membranes, quenched prenylated peptide cleavage fluorescence | calls only | actives 0.27% (n = 290,000) | AID 2563, 2010;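 active means fall in fluorescence gain of 50% or more versus controls, with final raw signal at or below 3038400; inconclusive means same 50% fall but final raw signal above 3038400; inactive means fall in fluorescence gain under 50%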;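 further: plate controls were neutral control wells for no effect and wells lacking membranes for full effect; tested at 10 µM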
Target sequence (Q03530 whole entry, looked up): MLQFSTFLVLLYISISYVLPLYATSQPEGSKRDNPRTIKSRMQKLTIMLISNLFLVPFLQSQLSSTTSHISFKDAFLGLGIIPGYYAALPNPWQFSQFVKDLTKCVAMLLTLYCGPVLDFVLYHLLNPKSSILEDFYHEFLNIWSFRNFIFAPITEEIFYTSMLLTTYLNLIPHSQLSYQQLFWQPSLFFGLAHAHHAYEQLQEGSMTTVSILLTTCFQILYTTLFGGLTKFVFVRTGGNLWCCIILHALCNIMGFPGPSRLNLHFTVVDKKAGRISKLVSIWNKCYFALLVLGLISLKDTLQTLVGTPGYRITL
PABP FP inh – PABP poly(A) RNA binding inhibitors, primary screen, biochemical, fluorescence polarization, uHTS | Polyadenylate-binding protein 1 (Homo sapiens), P11940 | inhibition, % at 35 µM | actives 1% (n = 290,000) | AID 2014, 2009;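 active means 50% or more with normal probe brightness, or confirmed in later tests; inconclusive means above 50% with abnormal brightness, or retests that disagree; inactive means below 50% or failed in later tests; about a fifth of its hits are not listed in these tables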;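 further: calls also rest on retests at 20 µM and on dose response follow-up; controls were probe without protein and protein plus probe with vehicle; some compounds called inactive have numbers as strong as hits; many hits fall short of the cut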
Target sequence (P11940 whole entry, looked up): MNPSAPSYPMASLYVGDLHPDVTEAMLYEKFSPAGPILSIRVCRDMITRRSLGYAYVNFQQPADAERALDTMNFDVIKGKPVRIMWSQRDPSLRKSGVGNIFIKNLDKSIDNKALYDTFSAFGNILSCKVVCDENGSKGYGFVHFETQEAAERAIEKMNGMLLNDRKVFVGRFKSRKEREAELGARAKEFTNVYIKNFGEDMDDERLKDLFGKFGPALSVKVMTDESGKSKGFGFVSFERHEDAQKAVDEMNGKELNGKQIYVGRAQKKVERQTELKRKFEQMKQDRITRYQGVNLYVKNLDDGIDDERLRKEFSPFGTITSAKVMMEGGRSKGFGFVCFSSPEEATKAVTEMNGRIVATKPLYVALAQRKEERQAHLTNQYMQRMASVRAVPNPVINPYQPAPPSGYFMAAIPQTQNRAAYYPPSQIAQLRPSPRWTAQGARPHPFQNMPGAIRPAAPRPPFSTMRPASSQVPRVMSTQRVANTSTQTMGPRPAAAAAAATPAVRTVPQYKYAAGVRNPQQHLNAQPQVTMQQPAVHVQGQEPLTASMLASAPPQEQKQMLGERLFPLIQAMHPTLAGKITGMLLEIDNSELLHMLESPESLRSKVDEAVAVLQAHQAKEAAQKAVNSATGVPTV
MT1-MMP act inh RFP – further read-out of MT1-MMP act inh, marked with its call; RFP signal change, %; measured here: RFP expression control read;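 0 = vehicle wells; hits needed this value within 50% of zero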
* marks the source's active call; other numbers are inactive results; i = inactive; ? = inconclusive; nt = no result given; & = joins results of further samples. Only part of the results is shown; rates above refer to the full screens.

Values in the order – eIF4H inh	MT1-MMP act inh	MT1-MMP act inh RFP	HIV Env fusion	UUG fidelity	CSC inhib	Rce1 inh	PABP FP inh
1) CCOc1ccccc1/C=C(\C#N)C1=CCCC1
 : 3.7	2.1	6.8	5.2	-12.5	nt	i	-1.5
2) C/C(=C\c1ccc2c(c1)OCO2)C1Nc2cccc3cccc(c23)N1
 : nt	4.0	5.8	14.7	8.2	4.2	nt	nt
3) CCC(c1nnnn1Cc1ccc2c(c1)OCO2)N1CCN(c2ccc(F)cc2)CC1 (stereo not given)
 : -5.4	4.2	-3.4	nt	-29.0	17.4	i	3.9
4) O=C(NCCCn1cccn1)C1CCC(=O)N(Cc2cccc(C(F)(F)F)c2)C1 (stereo not given)
 : -4.4	-6.5	2.8	-5.9	-19.8	nt	i	4.3
5) C=CCC[C@@H](Cc1ccc(F)cc1)C(=O)OC[C@@H](Cc1c[nH]c2ccccc12)NC(=O)[C@@H](CC=C)CC(=O)N(CCO)Cc1ccccc1
 : nt	-32.0	-26.6	nt	-3.8	?	nt	nt
6) O=S(=O)(O)c1ccc(SCc2ccccc2)nc1
 : nt	-0.8	2.5	-2.9	-5.4	-7.4	i	nt
7) Cc1[nH]n(C(C)(C)C)c(=O)c1Sc1ccccc1
 : 2.9	-6.8	-2.2	14.7	-12.2	-16.7	i	-13.1
8) O=C(NNC(=O)c1ccccc1Br)c1ccccc1Cl
 : -3.8	-0.3	-1.8	-19.9	nt	-12.0	i	0.6
9) Cc1ccc(NC(=S)NCCO)c(C)c1
 : -6.8	-1.0	2.7	nt	-12.5	-1.0	i	-8.2
10) CCCCS(=O)(=O)N1C2=NC(C(=O)OC)=C(C(=O)OC)[C@@H]3N(C)c4ccc(OC)cc4[C@]23C[C@H]1C(=O)OC
 : -8.0	2.2	2.7	nt	nt	9.5	i	6.1
11) Cc1ccc(CNC(=O)c2ccc3c(c2)S(=O)(=O)c2ccccc2C3=O)o1
 : nt	0.4	0.0	19.8	1.1	1.7	i	nt
12) O=C(CNC(=O)c1ccncc1)N/N=C/c1cccc([N+](=O)[O-])c1
 : -0.6	2.1	7.4	-16.7	nt	-8.0	i	0.4
13) COc1ccc(NCC(=O)N/N=C/C=C\c2ccccc2)cc1
 : 7.1	4.5	2.2	-31.6	-16.9	10.4	i	-6.0
14) COc1cc(Cl)c(C)cc1NC(=O)CN1C(=O)C2CC=CCC2C1=O (stereo not given)
 : nt	-0.5	0.9	nt	6.7	2.1	nt	nt
15) COCCNc1nc(N)c([N+](=O)[O-])c(Nc2ccc(F)cc2)n1
 : 2.7	-0.5	1.4	-4.4	-4.7	-3.1	i	7.4
16) O=C(Cc1ccccc1)Nc1ccc(SC(F)F)cc1
 : 2.0	4.8	-10.4	-40.0	nt	nt	i	13.5
17) CC(C)N1CC(C(=O)Nc2ccc(Br)c(Cl)c2)CC1=O (stereo not given)
 : -3.0	-2.0	5.6	0.5	2.7	5.5	i	7.3
18) CNC[C@@H]1Oc2c(NC(=O)Nc3ccc(F)cc3)cccc2C(=O)N([C@H](C)CO)C[C@@H]1C
 : nt	-2.9	0.9	-5.3	-3.7	-8.2	nt	nt
19) CC(CCc1ccccc1)NS(=O)(=O)c1ccccc1 (stereo not given)
 : -11.0	-2.8	-1.3	nt	-9.2	-8.1	i	-8.8
20) CCOC(=O)N(C)C[C@H]1OCc2cnnn2CCCC(=O)N([C@H](C)CO)C[C@H]1C
 : nt	-1.2	2.7	-6.7	-4.3&-12.2	nt	nt	nt
21) Clc1ccc(NCc2cccnc2)cc1
 : -4.3	2.8	-2.0	-8.8	5.1	15.6	i	-2.5
22) CC(C)Cn1c(-c2ccccc2)nc(=S)c2c1CCCC2
 : 4.3	-0.5	-2.0	-38.0	-12.9	-8.2	i	9.0
23) CC(O)(c1ccc(F)c(F)c1)c1nc(-c2csc3ccccc23)cs1 (stereo not given)
 : nt	0.3	-1.7	-10.6	-5.7	nt	nt	nt
24) COc1cc(OC)cc(C(=O)NCC(=O)NCc2ccccn2)c1
 : nt	-2.7	3.3	-29.9	-12.1	-9.9	nt	nt
25) O=C(Nc1ccccc1C(=O)N1CCCC1)c1cccc(S(=O)(=O)N2CCCCCC2)c1
 : -3.7	-0.5	-2.3	nt	nt	5.0	i	-2.2
26) O=C(/C=C/c1ccc(Br)o1)NCCCN1CCOCC1
 : 12.8	-6.3	-2.4	12.1	-14.2	-2.6	i	-9.3
27) CCC1(C)Cc2c(sc3nnn(CC(=O)Nc4cccc5ccccc45)c(=O)c23)CO1 (stereo not given)
 : -5.0	7.2	-3.3	46.5	-15.8	-2.3	i	16.7
28) O=C1NC2(NN1c1ccccc1)C1CC3CC(C1)CC2C3 (stereo not given)
 : 7.0	3.7	1.9	nt	-5.0	-9.7	i	-8.4
29) O=C(Cn1cc2c(n1)CCCC2)NCC1CCCO1 (stereo not given)
 : 5.4	1.5	3.5	2.0	-8.8	-14.7	i	0.5
30) COc1ccc(NC(=S)Nc2cc(C(F)(F)F)ccc2F)cc1
 : 0.1	1.6	2.1	-11.5	nt	nt	i	6.8

Compound profiles, from the list above. Order of values: eIF4H inh, MT1-MMP act inh, MT1-MMP act inh RFP, HIV Env fusion, UUG fidelity, CSC inhib, Rce1 inh, PABP FP inh
CCOc1ccccc1/C=C(\C#N)C1=CCCC1 as listed: 3.7, 2.1, 6.8, 5.2, -12.5, nt, i, -1.5
CCC1(C)Cc2c(sc3nnn(CC(=O)Nc4cccc5ccccc45)c(=O)c23)CO1 (stereo not given) as listed: -5.0, 7.2, -3.3, 46.5, -15.8, -2.3, i, 16.7

(more compounds)
Values in the order – eIF4H inh	MT1-MMP act inh	MT1-MMP act inh RFP	HIV Env fusion	UUG fidelity	CSC inhib	Rce1 inh	PABP FP inh
31) O=C(Cn1nnc(-c2ccccc2)n1)NNC(=O)c1ccccc1
 : 3.1	0.8	5.2	-3.3	nt	-13.2	i	-1.8
32) CC1=C(C(=O)NC(C)CCc2ccccc2)C2(CCC(C)CC2)OC1=O (stereo not given)
 : 1.8	1.9	-4.0	24.5	5.0	-1.0	i	-8.0
33) CN(CC(=O)Nc1ncn[nH]1)S(=O)(=O)c1ccc(Cl)cc1
 : -9.4	-0.7	2.2	-0.2	-13.0	2.6	i	6.8
34) Cc1ccccc1C1CC(c2ccccc2OC(F)F)Nc2ncnn21 (stereo not given)
 : 5.4	2.2	3.8	nt	nt	-10.6	i	-7.6
35) CCOc1ccc(S(=O)(=O)N2CCN(C(=O)c3cc(S(=O)(=O)N4CCOCC4)ccc3C)CC2)cc1
 : nt	-0.5	-4.7	-37.1	1.3	nt	nt	nt
36) CC(C)(C)c1ccc(-c2nnc(NC(=O)c3ccccc3)s2)cc1
 : 2.2	2.2	1.7	nt	-19.6	-0.2	i	-8.3
37) O=C(CCS(=O)(=O)c1cccc2nsnc12)NCc1ccccc1
 : 6.4	-3.0	1.4	-52.7	-7.9	nt	i	0.0
38) CCOCc1cc(CN2CCCC(CNC(=O)c3ccco3)C2)ccc1OC (stereo not given)
 : -4.4	-1.9	2.2	7.0	nt	-1.5	i	0.7
39) O=C1CC/C=C\C[C@@H](CC(=O)N(CCO)Cc2ccccc2)C(=O)N[C@H](Cc2c[nH]c3ccccc23)CO1
 : nt	-0.5	-2.7	-22.0	-16.6	-10.2	nt	nt
40) O=C(NNC1=NCCC1)c1ccc(Br)cc1
 : -7.7	4.2	5.7	nt	-18.0	-9.6	i	5.8
41) C/C(CC(C)C)=N\NC(=O)Nc1ccccc1
 : 5.0	-0.1	7.1	nt	-8.6	0.6	i	6.6
42) O=C(NCc1cn(-c2ccccc2)nc1-c1ccc(F)cc1)c1cccc([N+](=O)[O-])c1
 : 15.4	-2.3	-9.9	10.8	-13.8	13.6	i	-7.2
43) C#CCOCCOCCOCCNc1nc(N2CCN(C(=O)CCCCCCCCCCNC(=O)Cn3cc(CCCCCN)nn3)CC2)nc(N2CCN(C(=O)CCCCCCCCCCNC(=O)[C@H]([C@@H](C)CC)n3cc(CCCCN=C(N)N)nn3)CC2)n1
 : nt	25.7	1.4	nt	27.2	161.3*	nt	nt
44) Cc1c(NC(=O)c2ccc(Br)o2)c(=O)n(-c2ccccc2)n1C
 : 3.6	2.9	5.0	-23.1	-8.2	5.3	i	1.7
45) CCc1ccc(NC(=O)Cn2cc([N+](=O)[O-])nc2C)cc1
 : -0.5	9.3	-9.0	0.9	-2.5	-9.0	i	-2.9
46) COc1ccc(C(C(=O)NC2CCCCC2)N(C(=O)CCl)c2ccc(C)cc2)cc1 (stereo not given)
 : -4.5	-17.9	-22.8	55.9*	nt	49.2	i	-6.4
47) O=C(CSCc1ccccc1)Nc1ccc(S(=O)(=O)N2CCOCC2)cc1
 : -4.0	-0.3	-3.5	nt	nt	-9.8	i	4.3
48) COc1cc(-c2nc(-c3ccc4c(c3)-c3ccccc3S4(=O)=O)c(-c3ccccc3)[nH]2)cc(OC)c1O
 : -8.6	3.6	-12.1	-180.6	nt	37.1	i	-2.9
49) CCN(CC)S(=O)(=O)c1cccc(C(=O)N[C@H](C(=O)Nc2nc3ccccc3s2)C(C)C)c1
 : -10.1	-10.1	-15.4	nt	3.5	nt	i	-17.6
50) C=CCOc1cccc(C2C(C(=O)c3ccco3)=C(O)C(=O)N2CCN(CC)CC)c1 (stereo not given)
 : 1.2	-0.5	9.4	-121.5	-0.8	-5.4	i	2.0
51) Cc1ccc(S(=O)(=O)NNC(=O)c2cnn(-c3ccccc3)c2C(F)(F)F)cc1
 : -4.4	0.0	-2.5	7.5	nt	1.9	i	1.4
52) CCS(=O)(=O)N1N=C(c2ccccc2)CC1c1ccc2nccnc2c1 (stereo not given)
 : -1.7	1.5	-1.2	-88.1	-7.3	nt	i	11.4
53) C#CCOCCOCCOCCNc1nc(N2CCN(C(=O)[C@H]([C@@H](C)CC)n3cc(CCC(=O)O)nn3)CC2)nc(N2CCN(C(=O)[C@H](C)n3cc(CCCN=C(N)N)nn3)CC2)n1
 : 6.9	-2.5	0.4	-9.2	9.0	1.3	i	9.9
54) Cc1ccc(Cn2cnc3c(nnn3Cc3ccc(Cl)cc3)c2=O)cc1
 : -10.5	-4.7	0.7	8.3	-5.3	0.6	i	2.1
55) CCN(CCNC(=O)CN(C)S(=O)(=O)c1cccc2nsnc12)c1ccccc1
 : -4.9	2.9	-3.4	nt	-23.5	2.0	i	-0.1
56) CCOc1ccc(NC(=S)NC(=O)c2cnn(CC)c2)c([N+](=O)[O-])c1
 : -1.9	0.5	-4.1	nt	-11.8	nt	i	-1.5
57) COC(=O)c1c(-c2ccccc2OC)sc2cc3c(cc12)OCO3
 : nt	-2.9	-2.3	-21.0	2.1	nt	nt	nt
58) O=C(CSc1nnc(-c2ccncc2)n1-c1ccc(Cl)cc1)N1CCOCC1
 : -4.4	3.2	4.9	-37.9	-4.3	-8.8	i	5.8
59) COc1ccc(C(=O)NNC(=S)NC(=O)c2ccc(Br)o2)cc1OC
 : 7.0	5.1	6.0	15.8	nt	9.6	i	-0.2
60) O=C(Nc1cccc([N+](=O)[O-])c1)C(=O)N1CCCCC1
 : -6.2	2.6	6.0	-31.0	nt	2.5	i	-13.9
61) O=C(NCc1ccco1)c1cccc(Br)c1
 : -9.0	-2.0	-1.4	15.7	-6.5	-8.2	i	6.5
62) O=C(NCc1cccc(C(F)(F)F)c1)c1csc([C@@H]2O[C@H](CO)[C@H](O)[C@H](O)[C@H]2O)n1
 : nt	2.2	8.5	9.2	-20.9	nt	nt	nt
63) Cc1ccc(NC(=O)Nc2cccc([N+](=O)[O-])c2)nc1
 : -7.2	-0.1	1.4	0.4	nt	-0.7	i	-9.3
